Screening data from PubChem BioAssay.
Calb biofilm kill – mixture kills Candida albicans biofilm cells; C. albicans biofilm persisters + clotrimazole, fluorescence viability; primary screen in compound mixtures of four per well; inhibition, % at 7.6 µM; 120,000 compounds, 0.02% hits; AID 1242;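 active = inhibition above 30.3% in the primary screen of four-compound pools, then above 30% when the compound was retested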;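 note: compounds exposed to preformed 24 h biofilms for 48 h; the number belongs to the whole pool; some results filed as inactive read as strong as hits; inactives centre near 12; 0% = biofilm with clotrimazole alone and 100% = kill control; retested singly at about 60 µM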
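Test system: C. albicans biofilms. Buffer or medium: RPMI/MOPS medium, pH 7.0. Timing: 48 h compound exposure at 37 °C. Technique: Alamar Blue fluorescence. Evaluation: percent inhibition of biofilm viability.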
* hit, by the source's call. The list is partial, so the mix of outcomes need not match the whole.

No.	compound	Calb biofilm kill
1	CCCc1nc2oc3c(NCC(C)O)ncnc3c2c2c1CCCC2 (stereo not given)	12.9
2	CCCCCC(=O)N1CC2(CC(c3cccc(NC(=O)[C@@H]4CCC(=O)N4)c3)=NO2)C[C@@H]1C(N)=O (stereo not given in full)	16.6
3	OC(COCC1COc2ccccc2O1)CN1CCN(c2ccc(F)cc2)CC1 (stereo not given)	10.0
4	CCN(CC)S(=O)(=O)c1cccc(C(=O)Nc2cc3oc4ccccc4c3cc2OC)c1	13.7
5	COc1cccc(/C=N/NC(=O)c2ccc(=O)n(C)c2)c1O	20.6
6	CC1=CC(C)(C)Nc2ccc(OC(=O)CCN3C(=O)c4ccccc4C3=O)cc21	7.0
7	CS(=O)(=O)N(Cc1ccccc1)c1ccc(C(=O)Nc2ccccc2Sc2ccccc2)cc1	11.7
8	CCCn1ncc(CN2CCN(Cc3ccc(C)o3)C(CCO)C2)c1C (stereo not given)	25.0
9	CC(OC(=O)c1cccnc1)C(=O)Nc1ccc2c(c1)OCO2 (stereo not given)	5.5
10	O=C(N/N=C/c1ccccc1)c1[nH]c2ccc(Br)cc2c1-c1ccccc1	9.0
11	C=C(C)CSc1nc2ccccc2[nH]1	13.1
12	CCSc1nnc(NC(=O)NC(C)(C(F)(F)F)C(F)(F)F)s1	16.7
13	CC1C/C(=C/c2ccncc2)C(=O)/C(=C/c2ccncc2)C1 (stereo not given)	19.6
14	COc1cc(NC(=O)CN2C(=O)NC(C)(c3ccccc3)C2=O)c(C)cc1[N+](=O)[O-] (stereo not given)	13.7
15	COc1ccccc1NS(=O)(=O)c1cc(NC(=O)c2sccc2C)ccc1N1CCCC1	18.3
16	CCN(Cc1ccccc1)S(=O)(=O)c1ccc2c(c1)NC(=O)CC(=O)N2	13.2
17	O=C(NN=C(Cc1ccccc1)Cc1ccccc1)c1ccc(F)cc1	15.3
18	CC(=O)Nc1ccc(S(=O)(=O)NC2(C(F)(F)F)C(=O)Nc3c2c(=O)[nH]c(=O)n3Cc2ccccc2)cc1 (stereo not given)	15.1
19	COc1ccc(NC(=O)Nc2cccc(F)c2)c(OC)c1	13.6
20	CCN1C(=O)c2ccccc2Sc2ccc(C(=O)NCCCN3CCOCC3)cc21	11.4
21	COc1ccccc1-c1cc(C(F)(F)F)c(C#N)c(=O)[nH]1	9.9
22	COc1ccc(CC(=O)NCC2COc3ccccc3O2)cc1 (stereo not given)	4.1
23	Cc1ccccc1N1C(=O)c2cccc([N+](=O)[O-])c2C1=O	51.9
24	COc1ccc(-c2nnc(SC)o2)c(OC)c1	9.4
25	O=C(c1ccc(Cl)nc1)N1CCN(S(=O)(=O)c2ccc(Cl)cc2)CC1	-9.8
26	CCC1S/C(=N/N=C/c2ccco2)N(Cc2ccccc2)C1=O (stereo not given)	12.0
27	O=C(CCN1CCCC1)Nc1ccc(Br)cc1	9.0
28	COc1ccc(CCN(C)c2ncnc3sccc23)cc1OC	8.3
29	CN1CCN(C(=O)CSc2ccc(Cl)cc2)CC1	0.7
30	COc1cccc(/C(C)=N/NS(=O)(=O)c2ccc(Cl)cc2)c1	16.3
31	O=c1cc(N2CCCCC2)c(-c2ccccc2)n[nH]1	4.6
32	CC(Sc1nc(N)c2c3c(sc2n1)CSC(C)(C)C3)C(=O)Nc1ccccc1 (stereo not given)	11.5
33	O=C1CC(N2CCCc3ccccc32)C(=O)N1c1ccccc1Cl (stereo not given)	9.7
34	CN(C(=O)c1ccccc1OC1CCN(S(C)(=O)=O)CC1)C1CCOC1 (stereo not given)	13.8
35	Cc1onc(-c2ccccc2)c1C(=O)NC(=S)NNC(=O)c1ccncc1	17.4
36	Cc1nn(-c2ccccc2)c(N)c1N=Nc1cccc(S(=O)(=O)N2CCOCC2)c1	9.4
37	CC(=O)Nc1ccc(/C(C)=N/NS(=O)(=O)c2ccccc2)cc1	26.9
38	O=C(CCN1C(=O)c2ccccc2S1(=O)=O)Nc1ccccc1O	4.4
39	COc1ccc(C(=O)Nc2ccc(C3(C#N)CCCC3)cc2)cc1	21.4
40	O=C(COC(=O)c1ccccc1C(=O)c1ccccc1)NCCc1ccc(Cl)cc1Cl	8.1
41	C=CCOc1cccc(CNCCCN2CCOCC2)c1	3.9
42	N#Cc1ccc(-c2nc3ccccc3nc2-c2ccccc2)cc1C#N	15.2
43	CS(=O)(=O)c1ccc2sc(NC(=O)c3cc4ccccc4o3)nc2c1	14.3
44	Cc1ccc(S(=O)(=O)N2CCCCC2)cc1NC(=O)COC(=O)Cc1cccc(C(F)(F)F)c1	18.6
45	COc1ccc(NC(=S)NNC(=O)C2CC2c2ccc(C)cc2)cc1 (stereo not given)	4.1
46	COc1ccc(COCC(O)CN2CCc3ccccc3C2)cc1OC (stereo not given)	4.6
47	COc1cccc(C(=O)COC(=O)c2n[nH]c(=O)c3ccccc23)c1	1.2
48	COc1cc(/C=N/Nc2nc3ccccc3s2)ccc1OC(=O)c1ccccc1F	18.2
49	O=C(Nc1ccc(Br)cc1)C1OCCc2ccccc21 (stereo not given)	15.8
50	O=C(O)CCCC(=O)N1CCc2cc(S(=O)(=O)NCc3ccc(F)cc3)ccc21	12.0
51	CC(C)C(CC(=O)N1CCCCC1)C1CCOC(C)(C)C1 (stereo not given)	13.3
52	CC(C)CNC(=O)c1ccc(NC(=O)c2cccs2)cc1	4.2
53	CCc1nc(SCc2ccccn2)[nH]c(=O)c1C	18.1
54	COc1cccc(N2CCN(C(c3ccccn3)c3nnnn3C(C)(C)C)CC2)c1 (stereo not given)	18.0
55	Cc1nn(C(C)(C)C)c(C)c1/C=N/OC(=O)Nc1ccc(Cl)cc1	8.7
56	O=C(c1cc(-c2cccs2)nc2ccccc12)N1CCN(c2ccccc2O)CC1	6.2

Following part
No.	compound	Calb biofilm kill
57	COc1ccc(NC(=O)/C=C/c2ccccc2[N+](=O)[O-])c(OC)c1	17.4
58	Cc1cc(C(C)(C)C)ccc1OCCOCCN1CCCC1	7.1
59	Cc1nn(Cc2ccc(Cl)cc2Cl)c(Cl)c1/C=N/NC(=O)CNc1cccc(C(F)(F)F)c1	13.2
60	CC1(C)CC(=O)/C(=C(\O)c2ccccc2)C(=NCCc2ccccc2)C1	17.2
61	C=CCNC(=O)/C=C/c1ccc(C(C)C)cc1	11.8
62	O=C(COC(=O)C1CCC(=O)N1)Nc1ccc(Oc2ccccc2)cc1 (stereo not given)	14.9
63	O=C(Cc1nnc(NC(=O)Nc2ccccc2)s1)Nc1ccccc1	21.8
64	COc1ccc2c(c1)c(C(=O)N/N=C/c1cccc(O)c1)c(C)n2C	11.2

Next part; it opens with the 5 that closed the last part.
No.	compound	Calb biofilm kill
60	CC1(C)CC(=O)/C(=C(\O)c2ccccc2)C(=NCCc2ccccc2)C1	17.2
61	C=CCNC(=O)/C=C/c1ccc(C(C)C)cc1	11.8
62	O=C(COC(=O)C1CCC(=O)N1)Nc1ccc(Oc2ccccc2)cc1 (stereo not given)	14.9
63	O=C(Cc1nnc(NC(=O)Nc2ccccc2)s1)Nc1ccccc1	21.8
64	COc1ccc2c(c1)c(C(=O)N/N=C/c1cccc(O)c1)c(C)n2C	11.2
65	O=C1ON=C(c2ccccc2)/C1=C/c1cccnc1	6.8
66	CCc1ccccc1NC(=O)CN(C)C(=O)CSc1nc2cc(Cl)ccc2s1	11.2
67	CN(C)S(=O)(=O)c1ccc(S(=O)(=O)NC2CCOC(C)(C)C2)cc1 (stereo not given)	7.7
68	COc1ccc2nc(SC)c(C#N)cc2c1	15.2
69	Nc1ccc(Br)cc1C(NCC(=O)O)c1ccccc1 (stereo not given)	19.8
70	CC(C)(C)C(=O)O/N=C(\N)c1ccc(-c2csnn2)cc1	11.7
71	CC(C)c1ccccc1NC(=O)COC(=O)c1ccc(Cl)c(S(=O)(=O)N2CCCCCC2)c1	8.4
72	CCOCCCNC(=S)NCCc1ccccc1	16.9
73	CC(=O)c1nc(N2C(=O)CC(Cc3ccccc3)C2=O)sc1C (stereo not given)	7.5
74	O=P(c1ccccc1)(c1ccccc1)N(c1ccccc1)c1ccccc1	1.6
75	O=[N+]([O-])c1cccc(-c2nnc(C3CC3)o2)c1	10.3
76	CN1C(=O)c2ccc(NC(=O)c3cccc(N4C(=O)CCC4=O)c3)cc2C1=O	7.8
77	O=C(CN1C(=O)C2C3CCC(C3)C2C1=O)NCc1ccco1 (stereo not given)	21.4
78	Cc1cc(O)c(NC(=O)c2ccc(C)c([N+](=O)[O-])c2)cc1C	-3.1
79	C=CCn1c(=O)c(C(=O)OCC)c(O)c2ccccc21	-2.6
80	Cn1nnnc1SCC(=O)c1ccc2c(c1)OCCO2	25.2
81	CCc1ccc(C(=O)CSc2nc3cc(S(=O)(=O)N4CCOCC4)ccc3n2CC)cc1	-15.2
82	Cc1cccc(C)c1OC(=O)CCN1C(=O)C2C3C=CC(C4CC34)C2C1=O (stereo not given)	10.9
83	Cc1ccc(-c2cccc(C3CC=CC4C3C(=O)N(Cc3ccccc3)C4c3ccc4ccccc4c3)c2)cc1 (stereo not given)	14.3
84	COc1ccc(NS(=O)(=O)c2ccc(N3CCOCC3)c(NC(=O)c3ccco3)c2)cc1	5.0
85	Cc1cc(NC(=O)C23CC4CC(CC(C4)C2)C3)n[nH]1	13.2
86	Cn1cccc1/C=N/N1CCN(Cc2cccc3ccccc23)CC1	24.7
87	COC(=O)C1NN=C(C(=O)c2ccc(Cl)cc2)C1c1ccc(OC)cc1 (stereo not given)	14.0
88	Nc1cc(=O)[nH]c(SCc2csc(-c3ccccc3)n2)n1	7.1
89	Cc1cc(C)nc(N/N=C/c2c(C)oc3ccccc23)n1	5.9
90	Cc1cc(C)c(-n2[nH]nnc2=S)c(C)c1	17.6
91	CCOC(=O)c1sc(NS(=O)(=O)c2ccc(F)cc2)nc1C	21.0
92	Cc1onc(-c2ccccc2)c1C(=O)N(Cc1ccccn1)Cc1ccccn1	17.8
93	COC(=O)C1=C(CSc2nc3c(cc2C#N)CN(C)CC3)OC(N)=C(C#N)C1c1ccccc1F (stereo not given)	4.3
94	CC(=O)N(CCCN(C)C)c1nc2ccc(C)cc2s1	18.9
95	NC1=C(O)C(=O)C(c2ccccc2)O1 (stereo not given)	11.5
96	CCC(=O)Oc1ccc2c(c1)O/C(=C\c1ccco1)C2=O	13.1
97	CCO/N=C(\C)c1c(O)c2ccccc2n(C)c1=O	13.1
98	CSc1cnc2c(N)nc(N(C)C)nc2n1	13.4
99	COc1cc(CNCc2c[nH]c3ccccc23)cc(OC)c1	6.5
100	Cc1ccc(N2CC(=O)N(NC(=O)CN3CCN(c4ccccc4)CC3)CC2=O)cc1	23.5
101	O=[N+]([O-])c1ccccc1Nc1ccc(O)cc1	20.4
102	O=C(NC(=S)Nc1ccccc1C(=O)O)c1ccc2ccccc2c1	13.7
103	CN(Cc1ccccc1)S(=O)(=O)c1ccc(Cl)c(C(=O)NCCc2ccccn2)c1	6.2
104	COC(=O)CCCSc1nccn1-c1ccccc1	15.4
105	NC(=O)CSc1nc(C23CC4CC(CC(C4)C2)C3)nc2ccccc12	-0.2
106	CCOC(=O)C1(Cc2ccc(OC)cc2)CCN(C(=O)CCN2CCCC2=O)CC1	9.4
107	CCOC(=O)C1=C(COC(=O)C2(C)CC2(Cl)Cl)NC(=O)NC1c1ccccc1 (stereo not given)	12.3
108	CC(C)(C)c1cc(NC(=O)c2cccc([N+](=O)[O-])c2)no1	14.4
109	O=C(CCCc1nc2ccccc2s1)NC1CCOC1=O (stereo not given)	-7.1
110	CC(C)Cc1cc(C(=O)N2CCC(N3CCC(C(=O)N4CCOCC4)CC3)CC2)n[nH]1	8.6
111	Cc1ccccc1-n1c(=O)n(CCc2ccccc2)c(=O)c2[nH]cnc21	19.7
112	COc1ccc(N(C)C(=O)c2ccc3c(c2)nnn3C)cc1	11.6
113	CCOC(=O)c1ccc(CNC(=O)CSc2nnc(-c3ccncc3)o2)cc1	17.8
114	COc1ccc(CCNc2nc(=S)[nH]c3cc(OC)c(OC)cc23)cc1OC	10.8
115	Cc1ccc2nc(NCC(=O)NN)nc(-c3ccccc3)c2c1	31.0
116	COc1ccc(-c2nc(CN3CCC(c4ccccc4)CC3)c(C)o2)cc1OC	19.3
117	Cc1cccc(OCc2n(CC(=O)OC3CC(C)CCC3C(C)C)c3ccccc3[n+]2C)c1 (stereo not given)	2.7
118	Cc1cccc(C)c1NC(=S)NCc1ccccc1	3.5
119	Nc1nc(SCC(=O)NCc2ccccc2)[nH]c(=O)c1NC(=O)c1ccccc1F	8.0
120	CCCC1=NN(c2ccc([N+](=O)[O-])cc2)C(=O)/C1=C/N(C)C	3.9

The list continues.
No.	compound	Calb biofilm kill
121	Cc1cccc(N2CCN(C(=O)c3ccc(Cl)c(S(=O)(=O)N4CCc5ccccc5C4)c3)CC2)c1C	5.3
122	COc1ccc(NC(=O)N2CCC(CO)(CC3CCCCO3)CC2)c(OC)c1 (stereo not given)	20.1
123	CC(=O)Nc1ccc(S(=O)(=O)N2CCC(=O)Nc3ccccc32)cc1	-10.0
124	CS(=O)(=O)N(CC(=O)Nc1ccccc1C(=O)N1CCCC1)c1cccc([N+](=O)[O-])c1	12.2
125	Cn1cc(Br)c(C(=O)Nc2ncc(Br)s2)n1	7.3
126	Cc1cc2ncn(CCC(=O)NC3CCCC3)c2cc1C	16.9
127	CCN(CC)S(=O)(=O)c1ccc(N2CCOCC2)c(NCC(=O)Nc2ccc(F)cc2)c1	2.4
128	Cc1nn(C)c(C(=O)Sc2cccc(Cl)c2)c1[N+](=O)[O-]	28.9
129	CCN1CCc2c(OCC(=O)N3CCCc4ccccc43)cccc2C1=O	-13.6
130	O=C(c1ccc([N+](=O)[O-])cc1)N1CCN(Cc2ccccc2)CC1	16.6
131	O=C(NC1CCCCCC1)c1ccc(OCC2CCCO2)cc1 (stereo not given)	9.4
132	CCOC(=O)c1sc(=NC(=O)c2ccc(C)cc2)n(C)c1C	12.2
133	OC[C@@H](O)C1OC2NC(=S)OC2C1O (stereo not given in full)	28.3
